Source: PubChem
Methyltransferases = Primary Screen for Target Class Profiling of Small Molecule Inhibitors of Methyltransferases | purified enzyme, MTase-Glo SAH luminescence; stronger effect = lower value | calls only at 40 µM | actives 3.9% (n = 25,000) | AID 1745853, 2022; active = -50% or lower on at least one of six enzymes; inconclusive = the cases between; inactive = as a rule above -30% on all six;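 also: enzymes were COMT GAMT GNMT HNMT NNMT and PNMT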
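Each enzyme was reacted with SAM and its substrate, with compounds tested once at 40 uM; SAH formed was read by MTase-Glo luminescence.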
Calls only; i = inactive; ? = inconclusive; + = active, no number; ! = not active in a repeat. % is scaled to controls: 0 for no effect and ±100 for the full control effect. Not all compounds are listed, so the mix of outcomes need not match the whole.

SMILES	Methyltransferases
CO[C@@H]1COCC[C@@H]1N[C@@H]1CC[C@@](C(=O)N2CCc3ncc(C(F)(F)F)cc3C2)(C(C)C)C1	i
O=C(c1ccc(OC(F)F)c(C#Cc2ccccn2)c1)N1Cc2cccnc2C1	i
COc1cccc2cc(-c3nc(C4CCC(C(=O)O)CC4)n4ncnc(N)c34)[nH]c12 (stereo unspecified)	i
Cc1cc(NC(=O)c2cccc(NC(=O)/C=C/CN(C)C)c2)ccc1Nc1nccc(-c2cccnc2)n1	+
CN1CCN(Cc2ccc(NC(=O)Cc3ccc(Oc4cc(NC(=O)C5CC5)ncn4)cc3)cc2C(F)(F)F)CC1	+
Cc1cccc2c1NC(=O)C2(c1ccc(O)cc1)c1ccc(O)cc1	i
Fc1ccc2[nH]ccc2c1-c1nc(N2CCOCC2)c2sc(CN3CCN(CC4CC4)CC3)cc2n1	+
Cc1c(C(=O)N2CCOc3ccc(-c4ccc(N)nc4)cc3C2)ccc(S(C)(=O)=O)c1F	i
CCCN1C(=O)c2c(C(=O)NCc3cccc(F)c3)ncn2CC1(C)C(=O)NCCC(C)C (stereo unspecified)	i
COc1ccc(C[C@H]2COC(=O)[C@@H]2Cc2ccc(O[C@@H]3O[C@H](CO)[C@@H](O)[C@H](O)[C@H]3O)c(OC)c2)cc1OC	i
N[C@@H](Cc1c[nH]c2ccc(O)cc12)C(=O)O	i
Cc1nc2cc(C(=O)NCc3ccccn3)nn2c(C)c1Cc1cccc(Cl)c1	?
Cn1nccc1Nc1nccc(-c2ccn([C@H](CO)c3ccc(Cl)c(F)c3)c(=O)c2)n1	i
Cc1ncc(Cl)cc1NCc1ccc(C(=O)N[C@@H](CC2CCCC2)C(=O)NC2CC2)s1	?
CC(C)=CCC[C@](C)(O[C@@H]1O[C@H](CO)[C@@H](O)[C@H](O)[C@H]1O)[C@H]1CC[C@]2(C)[C@@H]1[C@H](O)CC1[C@@]3(C)CC[C@H](O)C(C)(C)C3[C@@H](O[C@@H]3O[C@H](CO)[C@@H](O)[C@H](O)[C@H]3O)C[C@]12C (stereo partly specified)	i
COc1cc2c(cc1-c1c(C)noc1C)ncc1[nH]c(=O)n(C(C)c3ccccn3)c12 (stereo unspecified)	+!
CCC(=O)N1CCN(c2ccc(-n3c(=O)ccc4cnc5ccc(-c6cnc7ccccc7c6)cc5c43)cc2C(F)(F)F)CC1	i
CC1COC(Nc2ccc3ncnc(Nc4ccc(OCc5nccs5)c(Cl)c4)c3c2)=N1 (stereo unspecified)	?
Cc1oc2nc3c(c(NC(=O)CN4CCCC4=O)c2c1C)CCCC3	i
Oc1cc(O)c2c(c1)O[C@H](c1ccc(O)c(O)c1)[C@@H](O)C2	i
CC(=O)O[C@@]12CO[C@@H]1C[C@H](O)[C@@]1(C)C(=O)[C@H](O)C3=C(C)[C@@H](OC(=O)[C@H](O)[C@@H](NC(=O)OC(C)(C)C)c4ccccc4)C[C@@](O)([C@@H](OC(=O)c4ccccc4)C12)C3(C)C (stereo partly specified)	?
COC(=O)c1sccc1S(=O)(=O)Nc1ccc(Nc2ccccc2)cc1OC	i
CC(C)NCC(C(=O)N1CCN(c2ncnc3c2C(C)CC3O)CC1)c1ccc(Cl)cc1 (stereo unspecified)	i
COCCCNCC1COc2ccccc2O1 (stereo unspecified)	i
CCCCNc1nc(N)c2[nH]c(=O)n(Cc3ccc(OCCN(C)C)nc3)c2n1	i
O=C(O)Cc1ccc2oc(-c3ccc(NC(=O)/C=C/c4ccc(Br)cc4)c(F)c3)nc2c1	i
CO/N=C(/C(=O)N[C@@H]1C(=O)N2C(C(=O)O)=C(Cn3nnc(C)n3)CS[C@H]12)c1csc(N)n1	i
COc1cc(CCc2cc(NC(=O)c3ccc(N4CC(C)NC(C)C4)cc3)n[nH]2)cc(OC)c1 (stereo unspecified)	?
Cc1cc2c(F)c(Oc3ncnn4cc(OCC(C)OC(=O)C(C)N)c(C)c34)ccc2[nH]1 (stereo unspecified)	?
CN1C(=O)N[C@@H](Cc2c[nH]c3c(Cl)cccc23)C1=O	i
CC(C)(C)NS(=O)(=O)c1ccc(-c2ccc3[nH]nc(N)c3c2)cc1	i
CCn1c(N)c(C(=O)NC)c(=O)c2ccc(C#CC(C)(O)COC)nc21 (stereo unspecified)	?
CN1CCC(CNc2ccc3ncc(-c4cccc(OC(F)(F)F)c4)n3n2)CC1	+!
O=S(=O)(NCC1CC1)c1ccc(Nc2nccc(N3CCCc4cc(O)ccc43)n2)cc1	?

16 entries from above, ordered by molecular weight, largest number first:
SMILES	Methyltransferases
CC(=O)O[C@@]12CO[C@@H]1C[C@H](O)[C@@]1(C)C(=O)[C@H](O)C3=C(C)[C@@H](OC(=O)[C@H](O)[C@@H](NC(=O)OC(C)(C)C)c4ccccc4)C[C@@](O)([C@@H](OC(=O)c4ccccc4)C12)C3(C)C (stereo partly specified)	?
CCC(=O)N1CCN(c2ccc(-n3c(=O)ccc4cnc5ccc(-c6cnc7ccccc7c6)cc5c43)cc2C(F)(F)F)CC1	i
O=C(O)Cc1ccc2oc(-c3ccc(NC(=O)/C=C/c4ccc(Br)cc4)c(F)c3)nc2c1	i
CC1COC(Nc2ccc3ncnc(Nc4ccc(OCc5nccs5)c(Cl)c4)c3c2)=N1 (stereo unspecified)	?
COc1cc(CCc2cc(NC(=O)c3ccc(N4CC(C)NC(C)C4)cc3)n[nH]2)cc(OC)c1 (stereo unspecified)	?
CC(C)NCC(C(=O)N1CCN(c2ncnc3c2C(C)CC3O)CC1)c1ccc(Cl)cc1 (stereo unspecified)	i
O=S(=O)(NCC1CC1)c1ccc(Nc2nccc(N3CCCc4cc(O)ccc43)n2)cc1	?
Cc1cc2c(F)c(Oc3ncnn4cc(OCC(C)OC(=O)C(C)N)c(C)c34)ccc2[nH]1 (stereo unspecified)	?
COC(=O)c1sccc1S(=O)(=O)Nc1ccc(Nc2ccccc2)cc1OC	i
COc1cc2c(cc1-c1c(C)noc1C)ncc1[nH]c(=O)n(C(C)c3ccccn3)c12 (stereo unspecified)	+!
CN1CCC(CNc2ccc3ncc(-c4cccc(OC(F)(F)F)c4)n3n2)CC1	+!
CCn1c(N)c(C(=O)NC)c(=O)c2ccc(C#CC(C)(O)COC)nc21 (stereo unspecified)	?
Cc1oc2nc3c(c(NC(=O)CN4CCCC4=O)c2c1C)CCCC3	i
Oc1cc(O)c2c(c1)O[C@H](c1ccc(O)c(O)c1)[C@@H](O)C2	i
CN1C(=O)N[C@@H](Cc2c[nH]c3c(Cl)cccc23)C1=O	i
COCCCNCC1COc2ccccc2O1 (stereo unspecified)	i
